# Bioassay records as filed in PubChem.
# hNpr1 antagonist – Natriuretic polypeptide receptor (hNpr1) antagonism - Primary qHTS; HEK293 hNpr1 GloSensor cGMP, ANP-stimulated luminescence; actives 1.6% (n = 76,000); Potency, µM (highest dose often 46.3 µM), inactives show at the highest dose activity change, negative = inhibition, hits mostly inhibitors; active = well fitted inhibition curve with a large enough effect; inconclusive = small, poorly fitted or top-dose-only effect; inactive = no such curve, though single readings can be large or run the other way;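 further: nearly all actives have a fitted effect of over 60% in size; nearly all hits also lower the signal before the agonist is added; a reference antagonist and vehicle were the controls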
# Target sequence (P16066 whole entry, looked up): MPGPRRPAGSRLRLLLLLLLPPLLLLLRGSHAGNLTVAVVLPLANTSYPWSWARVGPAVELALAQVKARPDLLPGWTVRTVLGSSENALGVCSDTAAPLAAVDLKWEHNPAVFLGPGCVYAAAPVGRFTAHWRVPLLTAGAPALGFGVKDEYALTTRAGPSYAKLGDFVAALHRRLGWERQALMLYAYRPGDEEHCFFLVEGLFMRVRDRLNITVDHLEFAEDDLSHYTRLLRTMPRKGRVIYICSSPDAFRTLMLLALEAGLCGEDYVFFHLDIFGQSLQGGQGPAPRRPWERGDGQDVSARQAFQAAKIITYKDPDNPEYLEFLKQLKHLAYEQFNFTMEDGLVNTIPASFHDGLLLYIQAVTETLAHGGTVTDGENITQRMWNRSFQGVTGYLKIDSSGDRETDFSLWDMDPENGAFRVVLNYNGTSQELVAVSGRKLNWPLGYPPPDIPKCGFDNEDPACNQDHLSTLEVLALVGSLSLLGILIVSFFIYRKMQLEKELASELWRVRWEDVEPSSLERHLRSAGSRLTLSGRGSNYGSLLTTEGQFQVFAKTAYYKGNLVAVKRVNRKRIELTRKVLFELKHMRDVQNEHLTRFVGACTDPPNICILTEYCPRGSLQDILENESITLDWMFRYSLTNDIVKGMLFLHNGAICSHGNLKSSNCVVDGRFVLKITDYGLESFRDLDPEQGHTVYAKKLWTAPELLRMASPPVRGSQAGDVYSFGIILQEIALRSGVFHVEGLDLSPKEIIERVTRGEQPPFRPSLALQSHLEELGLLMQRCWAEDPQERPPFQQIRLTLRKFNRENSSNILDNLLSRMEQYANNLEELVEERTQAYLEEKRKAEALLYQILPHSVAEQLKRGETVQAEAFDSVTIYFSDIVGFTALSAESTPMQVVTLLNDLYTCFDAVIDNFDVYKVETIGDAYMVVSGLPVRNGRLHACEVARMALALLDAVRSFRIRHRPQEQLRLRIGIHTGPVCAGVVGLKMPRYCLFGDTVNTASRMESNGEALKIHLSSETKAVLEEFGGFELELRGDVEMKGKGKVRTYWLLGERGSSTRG
#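 Compound pre-incubated 30 min at room temperature on GloSensor-loaded HEK293 cells stably carrying hNpr1 and the pGS-40F cGMP biosensor. Stimulation uses hNppA at 0.1 nM final; luminescence is taken at baseline and 20 min post-agonist.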
# The depositor's hits bear a star; u = inconclusive; [ ] = remark or other dose. On the % scale 0 is the no-effect control and ±100 the full control effect; potency means the concentration at half of the fitted maximal effect. The list is partial; the hit share may differ from the screen's.
hNpr1 antagonist	Compound
u	COc1ccc(C2=NOC3(CCN(Cc4ccc(F)cc4)C3)C2)cc1 (stereo unspecified)
5.2%	Cc1cc(C(F)(F)F)nn1CC(=O)N1CCC(c2noc(-c3ccccn3)n2)C1 (stereo unspecified)
2.7%	C[C@H]1[C@@H]2[C@@H](O)[C@H]([C@H](C)C(=O)N3CCCC3)CC[C@@]2(C)CC[C@@H]1NC(=O)c1cccc(F)c1
-1.8%[70.6 µM]	O=C(Nc1cccc(C(F)(F)F)c1)N[C@H]1[C@H](O)[C@@H](N2CCCCC2)[C@@H]2OC[C@H]1O2
-16.1%	COc1cc(OC)cc(C(=O)NCCn2ccn3nc(-c4cccc(OC)c4)cc3c2=O)c1
-27.0%	COc1ccccc1OCCNC(=O)c1cc2n(n1)CC(c1ccc(Cl)cc1)OC2 (stereo unspecified)
0.5%	COC1CCC12CCN(C(=O)c1cccnc1C)CC2 (stereo unspecified)
-2.5%	Cc1ccc(-c2nnc(C3CN(C(=O)Cc4c(C)noc4C)CC34CCOCC4)o2)cc1 (stereo unspecified)
3.2%	C[C@]1(O)CCN(C(=O)c2ccc3c(c2)CCCC3)C[C@@H]1O
-1.9%	COc1ccc(Cn2cc(C(C(=O)O)N(C)Cc3cccnc3)cn2)cc1 (stereo unspecified)
-0.6%	CC(C)NC(=O)C(NC(=O)c1ccc2c(c1)OCO2)C1CCN(C(=O)c2ccc(F)cc2)CC1 (stereo unspecified)
-27.1%	O=C(Cc1ccc(Cl)cc1)N1CCC2(CC1)CN(C1CCC1)CC2CO (stereo unspecified)

# Other results:
hNpr1 antagonist	Compound
5.0%	CN1CCCCCCN(S(C)(=O)=O)CCC1=O
-13.6%[70.6 µM]	COc1ccccc1-c1nc(-c2c(C)noc2C)cc2[nH]c(C)cc12
1.1%	CC(C)N1C[C@H](O)C[C@H]1c1nnc2n1CCN(C(=O)c1ccoc1)C2
-0.6%	CCC(CC)NC(=O)C1CCCN(Cc2ccncc2)CCC(=O)NCC1 (stereo unspecified)
0.0%	CCc1noc(-c2cn(C3CCN(C(=O)c4cccc(OC(F)(F)F)c4)C3)nn2)n1 (stereo unspecified)
-14.5%	COc1ccc(-c2cc(N3CCCC(NC(=O)COc4ccccc4)C3)n[nH]2)cc1 (stereo unspecified)
1.8%	Cc1nnnn1-c1cccc(-c2nc(C3CCOC3)no2)c1 (stereo unspecified)
-2.5%	C=CCn1cc2c3c(cccc31)[C@H](CC(C)C)N[C@H](C(=O)N1CCN(CCOC)CC1)C2
1.8%	O=C(Cn1nc2n(c1=O)CCCCC2)Nc1ccc(Cl)cc1
0.5%	O=C(CN1CCCc2nc(C3CC3)ncc2C1=O)NC1CC1
u	CCCNC(=O)N1CCC(c2noc(COc3ccc(F)cc3)n2)C1 (stereo unspecified)
4.1%	Cc1cccc(C(=O)N2CCCCCC2c2nnc(-c3ccccc3)o2)c1 (stereo unspecified)

# Other entries follow:
hNpr1 antagonist	Compound
3.8%	COc1cccc(NC(=O)NC[C@H]2O[C@H](Cc3cc(COc4ccccc4)on3)CC[C@@H]2O)c1
1.4%	COc1ccccc1NC(=O)C1CC(=O)N(c2n[nH]c3cccc(F)c23)C1 (stereo unspecified)
-14.3%	CCS(=O)(=O)N1CCC(c2noc(COCC3CC3)n2)CC1
-17.1%	COc1cc(NC(=O)c2cnc(-c3ccc(C)cc3)nc2-c2ccncc2)cc(OC)c1
-8.3%[70.6 µM]	COc1ccc(-c2[nH]nc3ncc(-c4ccccc4OC)nc23)c(C)c1
-2.2%	O=C(Cc1ccsc1)Nc1ccc2c(N3CCCC3)ncnc2c1
2.0%[70.6 µM]	c1coc(-c2nnc([C@H]3CCN(Cc4cc5ccccc5o4)C3)o2)c1
0.9%[70.6 µM]	CS(=O)(=O)N1C[C@@H]2OCC(=O)N(Cc3ccncc3)[C@@H]2C1
-6.0%	Cc1ccc(S(=O)(=O)N2C[C@@H](F)C[C@H]2C(=O)N2CCCCC2)cc1Cl
0.1%	O=C(NC1CCCCC1)N1CCC(Cc2nncn2CC2CC2)CC1
3.6%	COCCN1CC(CO)C2(CCN(C(=O)Cc3c(C)noc3C)CC2)C1 (stereo unspecified)
2.2%	CN(C)S(=O)(=O)N1CCCC(c2nc(-c3ccccc3)no2)CCNC(=O)CC1 (stereo unspecified)

# Next results.
hNpr1 antagonist	Compound
-0.8%	CCN(CC)C(=O)C(NC(=O)CC(C)C)C1CCN(C(=O)CCc2ccccc2)CC1 (stereo unspecified)
-1.2%	Cc1cn2nc(C(=O)NCc3ccc(F)cc3)cc2c(N2CCSCC2)n1
5.1%[70.6 µM]	Cn1cc(CN2C[C@H](C(=O)Nc3cccnc3)C[C@@H]2c2cccc(C(F)(F)F)c2)cn1
14.2%	CN(C)C(=O)c1cccc2c1CCN2C(=O)C1CC1
3.8%	Cn1nc2n(c1=O)CCN(S(C)(=O)=O)CC2
1.4%	CN(C)c1ccc(C(=O)N2CC[C@@H](CC(=O)O)[C@@H](CCN3CCN(c4ccccc4)CC3)C2)cc1
0.0%	COCc1nc(CCNS(=O)(=O)c2ccccc2C)no1
-1.3%[70.6 µM]	Cc1noc(C)c1-c1cc2cc(CO)oc2c(Nc2cccnc2)n1
2.2%	N#Cc1cccc(CN2CCCC(c3nc(-c4cccnc4)no3)CCNC(=O)CC2)c1 (stereo unspecified)
-4.2%	COc1cc(NC(=O)N2CCC(OC3CCN(S(C)(=O)=O)CC3)CC2)cc(OC)c1
u	CC(C)(Oc1nn(Cc2cccc(Cl)c2)c2ccccc12)C(=O)NCc1ccncc1
-7.1%	COc1cccc(CNC(=O)[C@@H]2C[C@@H](O)CN2C2CCN(C(=O)COc3ccccc3)CC2)c1

# 7 compounds picked at random from the list so far, as already listed:
hNpr1 antagonist	Compound
0.0%	COCc1nc(CCNS(=O)(=O)c2ccccc2C)no1
-0.8%	CCN(CC)C(=O)C(NC(=O)CC(C)C)C1CCN(C(=O)CCc2ccccc2)CC1 (stereo unspecified)
u	CC(C)(Oc1nn(Cc2cccc(Cl)c2)c2ccccc12)C(=O)NCc1ccncc1
-1.3%[70.6 µM]	Cc1noc(C)c1-c1cc2cc(CO)oc2c(Nc2cccnc2)n1
14.2%	CN(C)C(=O)c1cccc2c1CCN2C(=O)C1CC1
2.2%	N#Cc1cccc(CN2CCCC(c3nc(-c4cccnc4)no3)CCNC(=O)CC2)c1 (stereo unspecified)
3.8%	Cn1nc2n(c1=O)CCN(S(C)(=O)=O)CC2

# More entries follow:
hNpr1 antagonist	Compound
6.1%[70.6 µM]	COCCNc1ccc2nnc(-c3cc(C#N)ccn3)n2n1
3.9%	O=C1CCCN1CCCN1C(=O)[C@@H]2C[C@@H](O)CN2C2(CN(C3CCC(F)(F)CC3)C2)C1=O
-1.5%	CC(=O)N1CCc2nn(CC(=O)Nc3ccc(Cl)cc3F)c(=O)cc2C1
-9.3%	COc1ccc([C@H](C)NC(=O)c2c(C)noc2-c2cc(OC)c(OC)c(OC)c2)cc1
-5.0%	COc1cccc(CNC(=O)CN2C(=O)NC(c3ccccc3Cl)C3=C2COC3=O)c1OC (stereo unspecified)
u	CCn1ccc(C(=O)N2CCC(c3noc(-c4ccccc4)n3)C2)n1 (stereo unspecified)
0.9%	O=C(c1cccs1)N1CCc2n[nH]c(=O)n2CC1
3.7%	COc1cccc(CC(=O)N2CCCC(c3nc(-c4cccnc4)no3)CCNC(=O)CC2)c1 (stereo unspecified)
0.2%[70.6 µM]	COCCNc1ncccc1-c1noc([C@@H]2CCCN2Cc2ccccc2OC)n1
0.4%	Cc1nc(CCNC(=O)Nc2cccc(F)c2C)no1
2.0%	COc1cc2c(cc1CNC(=O)[C@H]1CCC[C@@H](O)C1)OCCO2
0.0%	COc1ccc(-c2cc(N3CCCN(C(=O)c4ccc(C)s4)CC3)n[nH]2)cc1

# Brought forward from above: 2 compounds; new compounds follow.
hNpr1 antagonist	Compound
2.0%	COc1cc2c(cc1CNC(=O)[C@H]1CCC[C@@H](O)C1)OCCO2
0.0%	COc1ccc(-c2cc(N3CCCN(C(=O)c4ccc(C)s4)CC3)n[nH]2)cc1
-8.4%	COc1ccc(C2Cn3nnc(-c4noc(-c5cccs5)n4)c3CO2)cc1 (stereo unspecified)
3.9%[70.6 µM]	O=C(Nc1ccc(F)cc1)N[C@H]1[C@H](O)[C@@H](N2CCCC2)[C@@H]2OC[C@H]1O2
0.5%	COC[C@H]1CCCN1C(=O)[C@@H](C)C1CC[C@@]2(C)CC[C@H](NC(=O)CC(C)(C)C)[C@@H](C)[C@@H]2[C@H]1O (stereo partly specified)
3.4%	O=C(Nc1cc(F)ccc1F)N1CCC(CCNC(=O)C2(c3ccccc3)CC2)CC1
u	COc1ccc(-c2cc(N3CCCN(C(=O)c4ccc(OC)cc4OC)CC3)n[nH]2)cc1
-8.2%	CC(C)[C@H]1CN(c2cnccn2)C[C@@H]1NC(=O)C1(C#N)CCOCC1
-8.0%[70.6 µM]	CC(CCc1ccccc1)NC(=O)c1ccc2nccn2c1 (stereo unspecified)
u	COc1cccc(CC(=O)NC2CCN(c3cc(-c4ccc(Cl)cc4)[nH]n3)CC2)c1
-2.4%	c1cc(CN(CCN2CCCCC2)CC2CCCN(C3CCCC3)C2)c2nonc2c1 (stereo unspecified)
3.6%[70.6 µM]	COC1CCCN(c2cc(-c3cccc(C(F)(F)F)c3)nc3c(C)noc23)C1 (stereo unspecified)
1.4%[70.6 µM]	COCCNC(=O)C[C@@H]1C[C@H]2O[C@H](CNC(=O)Nc3ccc(F)cc3)[C@@H](O)[C@H]2O1
0.6%[70.6 µM]	CN(Cc1ccc(-c2ccccc2)cc1)S(C)(=O)=O

# Other records follow:
hNpr1 antagonist	Compound
-13.8%	Cc1nc2c(NC(=O)C3COc4ccccc4O3)cccn2n1 (stereo unspecified)
-1.2%	COc1ccccc1C(=O)N1CCC2(CC1)OC(=O)N(Cc1csc(C)n1)C2(C)c1ccccc1 (stereo unspecified)
-9.1%[70.6 µM]	O=c1c2nc(OCc3ccc(F)cc3)ccc2ncn1Cc1ccccn1
1.4%	Cc1cc(C(=O)N2CCC(Cc3ccc(C(N)=O)cc3)CC2)n(C)n1
0.7%[70.6 µM]	COCC(=O)N[C@H]1CCN2C(=O)c3ccccc3NC(=O)[C@@H]2C1
0.0%	Cc1cc(C(F)(F)F)n(CC(C)Cn2cc(-c3cncnc3)nn2)n1 (stereo unspecified)
-28.5%	O=C(Nc1ccccc1Cl)c1cnc(-c2ccccc2)nc1-c1ccncc1
-8.8%	COc1cc(C)ccc1OCC(=O)c1ccc2c(c1)N(CC(=O)N1CCCC1)C(=O)CO2
2.2%	O=C1CCN(C(=O)COc2ccc(F)cc2)CCCCCCN1
-14.9%	O=C(Cc1ccc(F)cc1)N1CCC(c2nn(-c3ccc(Cl)cc3)c(=O)[nH]2)CC1
3.3%	Cc1c(Cl)cccc1NC(=O)Cn1c(C)cc2nc3n(c(=O)c21)CCCCC3
-16.1%	CCC(C)NC(=O)C1CC(c2ccc(F)c(C)c2)CN(C(=O)c2ccccc2)C1 (stereo unspecified)

# (list continues)
hNpr1 antagonist	Compound
-3.1%	Cn1nccc1C(=O)N1CCOc2ccc(CN3CCc4ccccc4C3)cc2C1
0.0%	COc1ccc(CNC(=O)c2ccc3c(c2)N(C)C2CCCN2C3=O)c(OC)c1 (stereo unspecified)
-3.3%	O=C(NC1CCCC1)c1ccc(OC2CCN(CCCC(F)(F)F)CC2)c(Cl)c1
-1.1%	COC1CCOC2(CCN(C(=O)Cc3c(C)noc3C)CC2)C1 (stereo unspecified)
11.2µM*	COc1ccc(-c2noc(CC3CCN(C(=O)Cc4ccccc4)CC3)n2)cc1
-15.6%	CCc1nc2c(c(-c3ccc(Cl)cc3)n1)CN(C(=O)CCl)CC2
9.6%	Cc1cnn(CCC(=O)N[C@@H]2CN(Cc3ccccc3)C[C@H]2CN(C)C)c1
0.0%	O=C(c1cccs1)C1CCCN(C(=O)c2ccc3nccn3c2)C1 (stereo unspecified)
u	Cc1ccc(C(=O)N2CCC3(Cc4ccccc4NC3=O)C2)cc1 (stereo unspecified)
0.2%	Cc1cccc(C(=O)NCc2nnc3cc(-c4nc(C)no4)ccn23)c1
-14.5%	CC(C)n1cnnc1CC1CCN(C(=O)Nc2ccc3c(c2)OCCO3)CC1
-11.7%[70.6 µM]	Cc1noc(C)c1[S+](=O)([O-])N1CCC2OCCN(Cc3ccccc3)C(=O)C2C1 (stereo unspecified)

# Additional results:
hNpr1 antagonist	Compound
12.9%	Cc1ccc(-n2c(C3CCN(C(=O)c4n[nH]c5c4CCCC5)CC3)n[nH]c2=O)cc1
2.2%	CN1C(=O)c2cccn2CC1CNC(=O)NC1CCCC1 (stereo unspecified)
-1.4%	OCC1CN(Cc2cc(Br)ccc2F)CC12CCNCC2 (stereo unspecified)
4.3%	Fc1ccc(-c2noc(-c3nc(-c4ccncc4)no3)n2)cc1F
1.7%	Cc1cc(C)cc(C(=O)N2[C@@H]3CC[C@H]2CC(NC(=O)c2cnc(C)cn2)C3)c1 (stereo partly specified)
-5.6%	O=C1CCN(C(=O)[C@@H](Cc2ccccc2)NC(=O)NCCc2ccccc2)CCOCCN1
-0.4%[70.6 µM]	O=C(O)C[C@@H]1CCN(C(=O)C2CC2)C[C@@H]1CCN1CCN(c2ccccn2)CC1
0.2%	O=C(CSCC1CC1)N1CCC2(CCC(=O)N(CCCn3ccnc3)C2)CC1
-24.2%	Cc1ccc(NC(=O)Cn2cccc2-c2nc(-c3ccc4c(c3)OCO4)no2)c(Cl)c1
-4.9%[70.6 µM]	Cc1noc2c(NCc3cccnc3)cc(-c3cccc(C(F)(F)F)c3)nc12
-0.6%	COc1cc(NC(=O)c2cc3c(=O)[nH]c(C)cn3n2)cc(OC)c1OC
5.9%	CCOc1ccc(CN2CCc3nc(N4CCN(C)CC4)[nH]c(=O)c3CC2)cc1
-1.7%	Cc1noc(C)c1[S+](=O)([O-])N1CCc2nc(C3CC3)nc(-c3ccc(Cl)cc3)c2CC1
